Rango-impB inh: qHTS Assay for Inhibitors of Rango (Ran-regulated importin-beta cargo) - Importin beta complex formation; actives 0.031% (n = 340,000); Potency, µM (series often up to 92.2 µM), for the others: at the highest dose inhibition of complex formation; Importin subunit beta-1 (Homo sapiens), Q14974; Rango CFP/YFP FRET sensor + importin beta, 45 min; active = rising FRET ratio curve, often small or poorly fitted; inconclusive = mostly compound fluorescence or quenching in the first reads; inactive = flat curves in all reads;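 also: potency is read from the fitted curve at half-maximal effect; 0% = DMSO wells and 100% = buffer wells lacking importin beta; nearly all actives have a fitted effect of over 15% in size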
Target sequence (Q14974 whole entry, looked up): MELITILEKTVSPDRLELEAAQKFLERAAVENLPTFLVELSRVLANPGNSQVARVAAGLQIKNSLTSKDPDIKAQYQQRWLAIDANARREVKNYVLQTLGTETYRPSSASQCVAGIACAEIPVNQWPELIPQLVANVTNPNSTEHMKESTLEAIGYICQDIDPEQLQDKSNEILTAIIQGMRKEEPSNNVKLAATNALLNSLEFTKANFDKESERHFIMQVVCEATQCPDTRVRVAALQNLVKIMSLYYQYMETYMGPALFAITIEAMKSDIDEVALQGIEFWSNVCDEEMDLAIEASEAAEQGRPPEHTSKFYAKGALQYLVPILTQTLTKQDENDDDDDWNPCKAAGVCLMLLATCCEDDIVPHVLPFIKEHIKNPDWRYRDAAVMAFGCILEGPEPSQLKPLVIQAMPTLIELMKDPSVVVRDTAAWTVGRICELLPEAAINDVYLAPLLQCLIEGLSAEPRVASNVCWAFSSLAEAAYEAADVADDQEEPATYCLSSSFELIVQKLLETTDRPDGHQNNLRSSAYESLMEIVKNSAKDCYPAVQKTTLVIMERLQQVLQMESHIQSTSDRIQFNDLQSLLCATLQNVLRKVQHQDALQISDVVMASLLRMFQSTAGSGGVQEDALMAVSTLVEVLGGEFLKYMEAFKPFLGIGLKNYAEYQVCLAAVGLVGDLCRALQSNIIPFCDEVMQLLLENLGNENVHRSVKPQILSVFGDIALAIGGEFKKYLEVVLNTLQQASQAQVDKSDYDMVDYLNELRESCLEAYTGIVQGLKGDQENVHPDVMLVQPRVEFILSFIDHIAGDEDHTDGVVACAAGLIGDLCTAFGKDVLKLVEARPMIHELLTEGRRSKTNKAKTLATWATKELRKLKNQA
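Inhibition scored from the CFP 486 nm/YFP 530 nm FRET ratio 45 min after adding 0.125 microM importin beta to 50 nM Rango biosensor preincubated 5 min with compound (room temperature, PBS with DTT, Tween-20, BSA). No-importin wells as positive control.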
miR-21 reporter: qHTS Assay for Modulators of miRNAs and/orActivators of miR-21. HeLa miR-21 FLuc reporter, luciferase, 48 h. 340,000 tested, under 10 active. AID 2288, 2010. Potency, µM (highest dose often 38.3 µM), for the others: at the top dose reporter change, positive = more light; active = well fitted rising curve with a large enough effect; inconclusive = small, poorly fitted or top-dose-only effect; inactive = no such curve, though single readings can be large or run the other way;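 also: % of control where 0% means no effect; miR-21 action dims this reporter so a rising signal means less miR-21 action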
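Compounds were titrated across several concentrations (up to approximately 40 uM) and incubated 48 hours with HeLa miR-21-FLuc reporter cells (miR-21 target sequence downstream of FLuc, endogenous miR-21). Readout was firefly luciferase luminescence after lytic detection reagent.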
GLA inh pH 4.5: qHTS Assay for Inhibitors of Human alpha-Galactosidase at pH 4.5; 230,000 tested, under 10 active; activity change, negative = inhibition, % at 105 µM; AID 1467, 2008; Alpha-galactosidase A (Homo sapiens), P06280; purified enzyme, 4-MU-alpha-Gal fluorescence, pH 4.5; inconclusive = small, poorly fitted or top-dose-only inhibition, or a rising curve; inactive = flat fitted curve, though single readings scatter; no compound was filed as active;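 also: 0% = full activity with enzyme and -100% = basal without enzyme; dose as in the result columns while the protocol names 77 µM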
Rango release inh: qHTS Assay for Inhibitors of RanGTP induced Rango (Ran-regulated importin-beta cargo) - Importin beta complex dissociation | AID 540253, 2011 | Snurportin-1 (Homo sapiens) + GTP-binding nuclear protein Ran (Homo sapiens) + Importin … | actives 0.071% (n = 340,000) | Potency, µM (highest dose often 46.1 µM), inactives show at the top dose activity change, negative = inhibition | Biochemical FRET Rango-importin beta, RanGTP-induced dissociation; active means falling FRET ratio curve, often poorly fitted, with flat reads before Ran was added; inconclusive means other falling curves, or compound fluorescence or quenching; inactive means flat or rising ratio curve;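 also: potency is read from the fitted curve at half-maximal effect; % of control where 0% means no effect; nearly all actives have a fitted effect of over 45% in size; -100% = wells without RanGTP and RCC1; the record marks most hits as doubtful in a second field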
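FRET read at 45 min, room temperature: inhibitors block the CFP/YFP signal rise when RanGTP (0.6 uM Ran, 2 mM GTP, 0.2 uM RCC1) frees Rango (0.1 uM) from importin beta (0.25 uM). Pre-read after 5 min compound exposure flags interference.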
Numbers without * were called inactive; ? = inconclusive; . = no result given. This is a subset (hit frequency here may not be typical).

SMILES	Rango-impB inh	miR-21 reporter	GLA inh pH 4.5	Rango release inh
CCOC(=O)C1CCN(C(=O)COC(=O)c2nn(C)c(=O)c3ccccc23)CC1	-0.7%	.	.	5%
Cc1cc(C)nc(NC2=N[C@@H]3CCCC[C@H]3N2C(=O)Nc2cc(Cl)cc(Cl)c2)n1	3.4%	.	.	-4%
Clc1ccc(-c2csc(N/N=C/c3ccc4c(c3)OCO4)n2)cc1	-0.4%	-12%	3	-19%
Cc1ccc(C(=O)N2C(=S)C(c3ccc(F)cc3)=NC23CCN(C)CC3)cc1	2.3%	1%	5	-1%
O=S(=O)(Nc1ccncc1)c1ccc(Cl)cc1	-0.3%	-6%	0	-3%
CCc1nc(SCC(=O)N2CCC(C)CC2)c2c(=O)n(C)c(=O)n(C)c2n1	?	1%	1	0%
CN1C(=S)SC(C)(NO)C1(C)C (stereo unspecified)	-2.4%	-10%	3	-1%
COc1ccc(S(=O)(=O)N2CCCN(CCC(=O)Nc3cccc(C(F)(F)F)c3)CC2)cc1	-0.4%	22%	-14	2%
COc1cc2[nH]c(=O)n(Cc3ccccc3Cl)c(=O)c2cc1OC	-4.1%	1%	4	5%
CC(C)CC(=O)NC(=S)Nc1ccccc1F	-0.5%	-21%	-3	-16%
O=C(CC(=O)N/N=C/c1c(F)cccc1Cl)NCc1ccccc1	0.3%	-1%	0	0%
CCOC(=O)/C(N=Nc1ccc(Cl)cc1)=C(/O)c1ccc([N+](=O)[O-])cc1	3.3%	-2%	3	21%
Nc1cc(-c2ccc(Cl)cc2)nn1S(=O)(=O)c1cccc2nsnc12	4.1%	11%	1	2%
CCN(C(=O)COC(=O)c1ccc([N+](=O)[O-])o1)c1cccc2ccccc12	-0.7%	.	.	-2%
CCOC(=O)C(O)(CC(=O)Nc1cc(F)ccc1C)C(F)(F)F (stereo unspecified)	2.5%	0%	-2	20%
Cc1cc(C)cc(NC(=O)CCC(=O)Nc2cc(C)on2)c1	3.1%	15%	9	10%
CN(C)c1ccc(N2[C@@H](CC(=O)O)c3cc(C(F)(F)F)ccc3S2(=O)=O)cc1	-1.6%	.	.	1%
CCn1c(C)cc(O)c(C(=O)Nc2cccc(Cl)c2)c1=O	-0.9%	-4%	.	0%
CCOc1ccc(/C(O)=C2\C(=O)C(=O)N(CCN(C)C)C2c2cccc(OC)c2OC)cc1Cl (stereo unspecified)	3.8%	-1%	-16	8%
O=C(Nc1ccc(Cl)cc1)c1cc2nc(C3CC3)cc(C(F)(F)F)n2n1	0.0%	-12%	9	9%
Cc1[nH]oc(=O)c1N=Nc1ccc2[nH]c(=O)[nH]c2c1	0.2%	.	.	3%
CN(Cc1cn(-c2ccccc2)nc1-c1ccc2c(c1)OCO2)Cc1nccn1C	1.2%	0%	-8	0%
CCO[C@@H]1OC(C(=O)NCc2nc3ccccc3[nH]2)=C[C@H](c2ccc(C(F)(F)F)cc2)[C@H]1CCCO	2.7%	9%	-11	-9%
Cc1ccc(NC(=O)CSCC(=O)Nc2cc(Cl)ccc2N2CCN(C)CC2)cc1	0.3%	.	.	8%

Another view of six compounds above:
Values run as follows: Rango-impB inh, miR-21 reporter, GLA inh pH 4.5, Rango release inh
> CCN(C(=O)COC(=O)c1ccc([N+](=O)[O-])o1)c1cccc2ccccc12
→ -0.7%, ., ., -2%
> Cc1cc(C)cc(NC(=O)CCC(=O)Nc2cc(C)on2)c1
→ 3.1%, 15%, 9, 10%
> CN(C)c1ccc(N2[C@@H](CC(=O)O)c3cc(C(F)(F)F)ccc3S2(=O)=O)cc1
→ -1.6%, ., ., 1%
> Nc1cc(-c2ccc(Cl)cc2)nn1S(=O)(=O)c1cccc2nsnc12
→ 4.1%, 11%, 1, 2%
> CN(Cc1cn(-c2ccccc2)nc1-c1ccc2c(c1)OCO2)Cc1nccn1C
→ 1.2%, 0%, -8, 0%
> Cc1[nH]oc(=O)c1N=Nc1ccc2[nH]c(=O)[nH]c2c1
→ 0.2%, ., ., 3%

Continued.
SMILES	Rango-impB inh	miR-21 reporter	GLA inh pH 4.5	Rango release inh
CCN(C(=O)CSc1ncccc1C(=O)Oc1cccc([N+](=O)[O-])c1)c1cccc(C)c1	0.0%	-1%	4	-18%
O=C1CCCC/C1=N\Nc1ccc(C2CCCCC2)cc1	.	-51%	-4	.
O=C(/C=C/c1cccs1)N1CCN(Cc2ccc3c(c2)OCO3)CC1	0.3%	-10%	2	2%
Cc1ccc(OCC(=O)NNC(=O)CSc2nnc(-c3ccc(C)cc3)n2C)cc1	-1.4%	-6%	6	-2%
CC1(C)C/C(=N\NC(=S)Nc2ccccc2F)c2cc(O)ccc2O1	?	19%	-10	-14%
O=C(Cn1cnc2c(cnn2-c2ccc(F)cc2)c1=O)N1CCN(c2ccccc2)CC1	?	-7%	8	3%
C[C@H]1COc2c(C3(N)CC3)c(F)cc3c(=O)c(C(=O)O)cn1c23	.	2%	-2	.
C[C@@H]1NC(=O)[C@@]2(C)[C@@H](c3ccccc3)[C@H]3COc4ccc(Cl)cc4[C@@H]3N2C1=O	-0.4%	.	.	12%
CCCCN1CC(=O)N2[C@@H]3c4cc(Br)ccc4OC[C@@H]3[C@H](C(=O)OCC)[C@]2(C)C1=O	0.9%	.	.	22%
CC(C)Cc1nnc(NC(=O)CCC(=O)N2CCN(c3ccccc3)CC2)s1	-2.0%	-1%	.	-6%
CCNC(=S)N(Cc1cc2c(C)ccc(C)c2[nH]c1=O)C1CCCC1	-2.8%	0%	7	22%
CN(C)/C=C/C(=O)c1ccncc1	?	-1%	-1	0%
Cc1nc2cc(NS(=O)(=O)c3cccc4cccnc34)ccc2s1	2.3%	11%	.	28%
Cc1ccc(NC(=O)CSc2ncn[nH]2)c([N+](=O)[O-])c1	-1.8%	.	.	-6%
CC1CCC/C(=C\Nc2ccc(C(=O)O)c(O)c2)C1=O (stereo unspecified)	?	-29%	3	-3%
Cc1ccc(/C=N/NC(=O)CSc2nc3ccccc3[nH]2)o1	-2.1%	-15%	.	-8%
O=C(CNS(=O)(=O)c1ccc2ccccc2c1)OCc1nnc(-c2ccccc2)o1	-0.1%	-37%	8	-2%
COCCSc1ccccc1C(=O)N1CCOCC1	-0.5%	-7%	2	10%
Cc1nc2sc(C(N)=O)c(N)c2c2c1CCCC2	1.7%	26%	1	-4%
CCc1nnc(SCC(=O)Nc2nc(C)c(C(=O)N(C)C)s2)n1CC	6.5%	0%	.	20%
CCOC(=O)c1sc(=S)n(-c2ccccc2)c1N	2.8%	-11%	6	-1%
Cc1nnc(Sc2nc3c(c(=O)[nH]c(=O)n3C)n2CCCc2ccccc2)s1	.	-13%	2	.
CCO/C=C1/C(=O)N(C(C)=O)c2ccccc21	-1.5%	-4%	5	-8%
Cc1nnc(NC(=O)c2cccc(S(=O)(=O)N3CCN(C)CC3)c2)s1	3.9%	.	.	-1%
CCCCC(O)CN1CCC(c2ccccc2)CC1 (stereo unspecified)	-3.5%	-2%	6	0%
COc1ccc(C2(C(=O)NCc3ccco3)CCCC2)cc1OC	-1.2%	-5%	6	0%
O=C1NCCCc2nonc21	-2.7%	0%	6	6%
COc1cccc(CNC(=O)C2CCCN(c3nc4ccccc4o3)C2)c1 (stereo unspecified)	-0.2%	0%	-4	2%
N#Cc1ccccc1S(=O)(=O)N1CCN(C(=O)c2cc3c(s2)CCC3)CC1	4.2%	.	.	-7%
CSc1nn(-c2ccc(C(=O)OCC(=O)NC(=O)NC(C)C)cc2)c(=S)s1	-0.1%	-13%	-3	13%
CC1(C)NC(=O)N(CC(O)COc2ccccc2[N+](=O)[O-])C1=O (stereo unspecified)	2.7%	0%	-18	-1%
CSCCC(NC(=O)c1ccco1)C(=O)OCC(=O)Nc1sccc1C#N (stereo unspecified)	.	-11%	7	.
Cc1nn(-c2ccccc2)c(C)c1/C=N/NC(=O)CSc1nnc(SCc2ccccc2Cl)s1	-2.7%	-17%	5	-9%
Cc1cc(C)n2nc(C(=O)N3CCOCC3)nc2n1	-6.9%	1%	-6	2%
CCCCC[C@H](O)/C=C/[C@@H]1[C@@H](C/C=C\CCCC(=O)O)[C@H]2CO[C@@H]1C2	-0.5%	-7%	-5	2%
COc1ccccc1NC(=S)NC(NC(=O)CC(C)C)C(Cl)(Cl)Cl (stereo unspecified)	-5.8%	3%	-7	34%
COc1ccc(S(=O)(=O)N2CCCCC2)cc1NC(=O)c1ccc(=O)[nH]c1	-0.9%	0%	-1	-8%
COP(=O)(OC)C(NC(=O)Nc1ccccc1)c1ccccc1 (stereo unspecified)	2.3%	-3%	-6	17%
CC(C)NC(=O)c1onc(CSc2ccc(F)c(F)c2)c1C(=O)O	-0.5%	-13%	-1	-25%
Nc1nnnn1/N=C/C=C/c1ccccc1	-2.7%	-45%	-4	-1%
COc1ccc(C(CNC(=O)CCNS(=O)(=O)c2ccc(Br)cc2)N2CCOCC2)cc1 (stereo unspecified)	5.2%	.	.	-4%
COCCn1c(C)cc(C(=O)CSc2ncnc3sc4c(c23)CCC4)c1C	0.8%	0%	8	6%
Cc1ccc(CNC(=O)C2CC(=O)N(C3CCCCCCC3)C2)cc1 (stereo unspecified)	0.5%	-1%	-10	5%
Cc1sc2ncnc(SCC(=O)Nc3nc(-c4ccc(F)c(F)c4)cs3)c2c1C	5.4%	0%	7	36%
COc1ccc(-c2nnc(SCC(=O)c3ccc[nH]3)n2-c2ccccc2)cc1	-0.9%	-69%	5	6%
Cc1cc(-c2ccccc2)c2nncn2n1	1.2%	-12%	-4	12%
O=c1[nH]cnc(O)c1C(c1ccc([N+](=O)[O-])cc1)c1c(O)nc[nH]c1=O	-0.5%	0%	.	4%
COc1ccc(OC)c(C(=O)CSc2nc3ccccc3n2CC(=O)NC(C)(C)C)c1	-0.6%	-4%	8	14%
CCOc1ccccc1C1CC(=O)Nc2cc(OC)c(OC)c(OC)c21 (stereo unspecified)	3.7%	0%	-1	-9%
COc1ccccc1Oc1cc(C#N)c(C#N)cc1-n1nnc2ccccc21	-3.6%	-5%	2	2%
Cc1cc(C)c(NC(=O)/C(=C/c2ccco2)c2ccccc2)c(C)c1	-3.1%	1%	-15	-19%
CCCc1nc2ccccc2c(C(=O)OCC(=O)Nc2c(C)n(C)n(-c3ccccc3)c2=O)c1CC	-3.2%	12%	1	-10%
C=C1C[C@H](O[C@@H]2O[C@H](CO)[C@@H](O)[C@H](O)[C@H]2O)[C@@H]2[C@H](OC(=O)[C@H]2C)[C@H]2[C@H](C)[C@H](O)C[C@@H]12	0.2%	.	.	28%
O=C(Nc1ccc2nc(N3CCOCC3)sc2c1)c1ccccc1	-3.2%	.	.	17%
CCOC(=O)C1=C(C)OC(N)=C(C#N)C1c1ccoc1 (stereo unspecified)	?	-1%	-1	-17%
c1ccc(CCNc2nc(-c3ccncc3)nc3ccccc23)cc1	0.3%	24%	-1	-3%
CSc1ccc(CCNC(=O)CN2C(=O)CCSc3ccccc32)cc1	0.7%	-6%	.	-11%
COC(=O)CN(c1ccc(F)cc1)S(=O)(=O)c1ccc2c(c1)OCCO2	3.1%	-4%	0	7%
CC(Sc1nnc(NC2CC2)s1)C(=O)Nc1ccc(S(N)(=O)=O)cc1 (stereo unspecified)	0.6%	.	.	-10%
CCCC12C(=O)C(C)(C(c3ccccc3)=C1c1ccccc1)C1C(=O)N(c3ccc(C)cc3)C(=O)C12 (stereo unspecified)	0.3%	-9%	4	6%
CN(C)S(=O)(=O)c1cccc(-c2nnc3n2CCCCC3)c1	5.3%	-1%	9	-5%

Screening results (PubChem)
